# Source: PubChem BioAssay
# AF4-AF9 inh = blocks AF4 peptide binding to human AF9. AlphaScreen, biotin-AF4 peptide binding to FLAG-AF9. hit rate 0.47% among 350,000. inhibition, % at 10 µM. P42568. AID 651704;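 active = every replicate reaching a set inhibition limit, whatever the replicate mean, cut at about 25% in these data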;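 also: 0% = plate neutral control median and 100% = total signal loss; the record names both 10 and 1 µM as test concentration; the first replicate is given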
# Target sequence (P42568 whole entry, looked up): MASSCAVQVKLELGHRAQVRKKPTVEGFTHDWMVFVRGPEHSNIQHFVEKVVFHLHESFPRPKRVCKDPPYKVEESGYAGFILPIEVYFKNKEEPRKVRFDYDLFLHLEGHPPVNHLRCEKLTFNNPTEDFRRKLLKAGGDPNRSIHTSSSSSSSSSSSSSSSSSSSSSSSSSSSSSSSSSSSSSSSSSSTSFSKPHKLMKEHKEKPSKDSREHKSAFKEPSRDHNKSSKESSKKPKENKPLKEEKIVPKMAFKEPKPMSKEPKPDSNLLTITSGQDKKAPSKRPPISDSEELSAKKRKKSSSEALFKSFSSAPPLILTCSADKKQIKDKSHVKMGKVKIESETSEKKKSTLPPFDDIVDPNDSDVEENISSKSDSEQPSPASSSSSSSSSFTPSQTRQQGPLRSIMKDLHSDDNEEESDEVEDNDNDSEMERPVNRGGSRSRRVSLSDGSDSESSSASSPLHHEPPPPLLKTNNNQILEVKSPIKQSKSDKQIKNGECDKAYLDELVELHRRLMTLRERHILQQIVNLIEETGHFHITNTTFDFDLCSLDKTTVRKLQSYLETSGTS
# Active calls of the source: *. A portion of the library; count on the stated rates, not on these rows.
SMILES,AF4-AF9 inh
C[C@H](CO)N1C[C@H](C)[C@H](CN(C)S(=O)(=O)c2ccc(F)cc2)Oc2ccc(NC(=O)Nc3ccc(C(F)(F)F)cc3)cc2C1=O,-13
COCC(=O)N1CC2(CN(Cc3ccccc3)C2)c2c(n(C)c3cc(OC)ccc23)[C@@H]1CO,-1.2
CO[C@@H]1CN(C)C(=O)c2ccc(NS(=O)(=O)c3cn(C)cn3)cc2OC[C@H](C)N(CCC(F)(F)F)C[C@H]1C,-2.6
CC(C)NC(=O)Nc1ccc2c(c1)C(=O)N([C@H](C)CO)C[C@H](C)[C@@H](CN(C)C(=O)c1ccccc1)OCCCC[C@@H](C)O2,-4.5
CNC(=O)C[C@H]1CC[C@@H]2[C@H](COC[C@H](O)CN2C(=O)c2ccccn2)O1,-4.5
CC(=O)N(C)C[C@H]1Oc2cc(Br)ccc2S(=O)(=O)N([C@@H](C)CO)C[C@H]1C,-4.9
Cc1ccc(-c2cnc3c(c2)C(=O)N([C@H](C)CO)C[C@@H](C)[C@@H](CN(C)CC2CCOCC2)O3)cc1,-3.2
C[C@@H]1CN([C@@H](C)CO)S(=O)(=O)c2ccc(C#Cc3ccc(F)cc3)cc2O[C@@H]1CN(C)C(=O)c1ccccn1,5.5
CN(C)CC(=O)Nc1ccc2c(c1)[C@@H]1C[C@@H](CC(=O)NC3CCCC3)O[C@H](CO)[C@@H]1O2,-0.8
CCCC#Cc1cnc2c(c1)C(=O)N([C@H](C)CO)C[C@H](C)[C@H](CN(C)S(=O)(=O)c1cn(C)cn1)O2,-1.4
CCN1CCN(c2c(S(=O)(=O)c3ccc(Cl)cc3)cnc3ccccc23)CC1,3.1
COc1ccc(CN2CC3(CCN(C(=O)Cc4ccccc4)CC3)c3c([nH]c4cc(OC)ccc34)[C@H]2CO)cc1,-2.3
O=C(C[C@@H]1CC[C@@H]2[C@H](COC[C@H](O)CN2Cc2cc(F)ccc2F)O1)NCc1ccccc1,3.1
CC(C)CC#Cc1ccc2c(c1)O[C@@H](CN(C)S(=O)(=O)c1cccc(F)c1)[C@@H](C)CN([C@@H](C)CO)S2(=O)=O,-1.3
COc1ccc(NC(=O)N(C)C[C@H]2Oc3ncc(-c4cccnc4)cc3C(=O)N([C@@H](C)CO)C[C@@H]2C)cc1,-4.4
CC(C)c1cccc(NC(=O)C[C@H]2CC[C@H]3[C@@H](COc4ccc(NC(=O)c5cnccn5)cc4C(=O)N3C)O2)c1,-1.4
C[C@@H]1CN([C@H](C)CO)C(=O)c2cccc(NC(=O)C3CCCCC3)c2O[C@@H]1CN(C)C(=O)Nc1ccc(C(F)(F)F)cc1,3.3
CC(=O)N1[C@@H]2c3ccc(C4=CCCC4)c(=O)n3C[C@@H]2[C@@H](CO)[C@@H]1C(=O)NC1CCC1,-12
C[C@H](CO)N1C[C@H](C)[C@@H](CN(C)C(=O)NC2CCCCC2)OCCCC[C@H](C)Oc2ccc(NC(=O)CCC(F)(F)F)cc2C1=O,4.1
Cc1ccc(C(=O)N2O[C@]34C=C[C@]25C[C@@H](O)CC[C@]5(C)C3CC[C@]2(C)[C@@H]([C@H](C)/C=C/[C@H](C)C(C)C)CC[C@H]24)cc1 (stereo not given in full),-1.5
C[C@@H]1CN([C@H](C)CO)C(=O)c2cc(NC(=O)c3ccccc3)ccc2O[C@@H](C)CCCCO[C@H]1CN(C)Cc1ccncc1,0.3
COc1ccc(Sc2cccc3c2S(=O)(=O)N(C2CC2)C[C@@H](COCc2ccccc2)O3)cc1OC,2.1
O=C([C@@H]1[C@@H](CO)[C@@H]2Cn3c(ccc(-c4ccccc4F)c3=O)[C@H]1N2C(=O)C1CCC1)N1CCOCC1,-2.4
COc1cccc(CNC(=S)Nc2ccc3c(c2)c(=O)n(C)n3Cc2csc(C)n2)c1,-4.3
C[C@@H]1CN([C@H](C)CO)C(=O)c2cc(NC(=O)Cc3ccccc3)ccc2O[C@H]1CN(C)C,-1.9

# Brought forward from above: 4 compounds, followed by the next part.
SMILES,AF4-AF9 inh
COc1ccc(Sc2cccc3c2S(=O)(=O)N(C2CC2)C[C@@H](COCc2ccccc2)O3)cc1OC,2.1
O=C([C@@H]1[C@@H](CO)[C@@H]2Cn3c(ccc(-c4ccccc4F)c3=O)[C@H]1N2C(=O)C1CCC1)N1CCOCC1,-2.4
COc1cccc(CNC(=S)Nc2ccc3c(c2)c(=O)n(C)n3Cc2csc(C)n2)c1,-4.3
C[C@@H]1CN([C@H](C)CO)C(=O)c2cc(NC(=O)Cc3ccccc3)ccc2O[C@H]1CN(C)C,-1.9
CNC(=O)C[C@@H]1CC[C@@H]2[C@H](COc3ccc(NC(=O)Nc4ccccc4OC)cc3C(=O)N2C)O1,-2.2
COc1ccc(CN(C)C[C@@H]2Oc3ccc(NC(=O)Nc4ccccc4)cc3CC(=O)N([C@@H](C)CO)C[C@@H]2C)cc1,4.7
COc1ccc(NC(=O)Nc2cccc3c2O[C@H](CN(C)Cc2ccc(-c4ccccc4)cc2)[C@@H](C)CN([C@@H](C)CO)C3=O)cc1,1.7
CN1C(=O)c2cc(NC(=O)c3ccc(Cl)cc3)ccc2OC[C@@H]2O[C@@H](CC(=O)O)CC[C@H]21,-0.8
CC(C)(C)NC(=O)C1c2ccccc2OCC(=O)N1Cc1ccccc1 (stereo not given),-0.6
CCC(=O)Nc1ccc2c(c1)C(=O)N(C)[C@@H]1CC[C@H](CC(=O)NCc3ccccc3)O[C@H]1CO2,1.0
C[C@H](CO)N1C[C@H](C)[C@@H](CN(C)C(=O)NC2CCCC2)Oc2ncc(C#CCN(C)C)cc2C1=O,-5.5
COc1ccc(S(=O)(=O)N(C)C[C@H]2Oc3cc(-c4cccc(F)c4)ccc3S(=O)(=O)N([C@H](C)CO)C[C@H]2C)cc1,-1.0
CCc1cnc(N2[C@H](CO)[C@H](c3ccc(C#CCC4CCCC4)cc3)[C@@H]2C#N)s1,-1.4
C[C@@H]1Cn2cnc(C(=O)Nc3cccc(Cl)c3)c2C(=O)N1,-3.8
C[C@H](CO)N1C[C@H](C)[C@@H](CN(C)S(=O)(=O)c2cccs2)Oc2ccc(NC(=O)Nc3ccc(F)cc3)cc2C1=O,1.0
O=C(Nc1ccccc1Cl)N1C[C@@H]2[C@H](c3ccccc31)[C@@H](CO)N2Cc1ccccc1,3.3
C[C@@H]1CN([C@H](C)CO)C(=O)Cc2cc(NC(=O)Nc3ccc(F)cc3)ccc2O[C@H]1CN(C)Cc1ccncc1,-1.2
C[C@@H]1CN([C@@H](C)CO)C(=O)c2cc(C3=CCCC3)cnc2O[C@@H]1CN(C)C(=O)c1cccnc1,-1.2
CCOC(=O)C1=CCN(S(=O)(=O)c2ccc([N+](=O)[O-])cc2)C1c1ccc(C)cc1 (stereo not given),1.3
CO[C@H](CN(C)S(=O)(=O)c1ccc(C)cc1)[C@@H](C)CN(C(=O)Nc1ccccc1F)[C@@H](C)CO,-2.6
COc1ccc(CN(C)C[C@@H]2OCCCC[C@H](C)Oc3ccc(NS(=O)(=O)c4ccc(F)cc4)cc3C(=O)N([C@@H](C)CO)C[C@H]2C)cc1,2.9
Cn1nc(C(=O)NNC(=O)Cc2ccc(S(=O)(=O)N3CCOCC3)s2)c2ccccc2c1=O,-3.6
O=C(C1CCCC1)N1[C@@H](CO)[C@@H](c2ccccc2)C12CN(CCC(F)(F)F)C2,-1.2
Cc1noc(C)c1S(=O)(=O)N(C)C[C@@H]1Oc2ccc(NS(=O)(=O)c3cn(C)cn3)cc2CC(=O)N([C@H](C)CO)C[C@H]1C,-0.8
COc1ccc(CC(=O)Nc2ccccc2C(F)(F)F)cc1S(=O)(=O)N1CCOCC1,-6.6
C[C@H](CO)N1C[C@H](C)[C@H](CN(C)Cc2ccccc2)Oc2ccc(NC(=O)c3ccncc3)cc2CC1=O,-12
O=C(C[C@@H]1C=C[C@@H](NC(=O)C2CC2)[C@H](CO)O1)Nc1ccccc1,-0.5
C[C@H](O)C#Cc1ccc2c(c1)O[C@H](CN(C)C(=O)CC1CC1)[C@@H](C)CN([C@@H](C)CO)S2(=O)=O,0.5
O=C(NCCc1ccncc1)[C@@H]1[C@@H](CO)[C@@H]2Cn3c(ccc(-c4ccncc4)c3=O)[C@@H]2N1C(=O)C1CC1,-9.5
# Next part:
SMILES,AF4-AF9 inh
C[C@@H]1CN([C@H](C)CO)S(=O)(=O)c2ccc(-c3ccc(C#N)cc3)cc2O[C@H]1CN(C)Cc1ccccn1,5.6
COc1ccc(NC(=O)Nc2ccc3c(c2)C(=O)N([C@H](C)CO)C[C@@H](C)[C@H](CN(C)CC2CCCCC2)O3)cc1,5.1
C[C@@H]1CCCCO[C@H](CN(C)C(=O)NC2CCCCC2)[C@@H](C)CN([C@H](C)CO)C(=O)c2cc(NC(=O)Nc3ccc(F)cc3)ccc2O1,-2.4
CCCC(=O)Nc1ccc2c(c1)C(=O)N(C)[C@H]1CC[C@H](CC(=O)Nc3ccccc3)O[C@H]1CO2,2.1
O=C(CC[C@H]1O[C@@H](n2cnc3c(NC(=O)c4ccccc4)ncnc32)[C@H](O)[C@@H]1O)NCCc1cc2ccccc2[nH]1,-1.1
Cn1ccc2c(-c3ccc(C(N)=O)cc3)cc3c(c21)C1CCC3C1 (stereo not given),-2.2
C[C@H](CO)N1C[C@H](C)[C@H](CN(C)C)Oc2ccc(NC(=O)Nc3ccccc3)cc2CC1=O,4.8
COc1ccc2c3c([nH]c2c1)[C@@H](CO)N(C(=O)C1CCOCC1)CC31CN(Cc2cccc(F)c2)C1,15
COc1ccc(S(=O)(=O)Nc2ccc3c(c2)CC(=O)N([C@H](C)CO)C[C@@H](C)[C@H](CN(C)C(=O)Nc2ccccc2)O3)cc1,-2.5
CN1C(=O)c2cc(NC(=O)C3CC3)ccc2OC[C@@H]2O[C@@H](CC(=O)NCCc3ccncc3)CC[C@@H]21,-15
COc1ccccc1-c1cnc(C(O)c2ccc(F)c(F)c2)[nH]1 (stereo not given),5.1
O=C(Nc1ccc2c(c1)[C@@H]1C[C@@H](CC(=O)N3CCCCC3)O[C@@H](CO)[C@@H]1O2)c1ccc2c(c1)OCO2,-1.6
COc1ccccc1NC(=O)N1CCCCN2[C@H](CO)[C@H](c3ccc(C#Cc4ccccc4)cc3)[C@H]2C1,9.7
CCNC(=O)C[C@@H]1CC[C@H]2[C@@H](COC[C@H](O)CN2C(=O)Nc2ccc(Cl)c(Cl)c2)O1,-0.3
CNC(=O)C[C@@H]1CC[C@H]2[C@@H](COc3ccc(NC(=O)Nc4cccc(C)c4)cc3C(=O)N2C)O1,4.2
C[C@@H]1CN([C@@H](C)CO)C(=O)c2cc(/C=C/c3ccccc3)cnc2O[C@H]1CN(C)C(=O)c1ccncc1,-2.5
C[C@H](CO)N1C[C@H](C)[C@H](CN(C)S(=O)(=O)c2ccc(Cl)cc2)Oc2ccc(NC(=O)Nc3ccc(C(F)(F)F)cc3)cc2C1=O,0.3
C[C@@H]1CCCCO[C@H](CN(C)S(=O)(=O)c2ccccc2)[C@@H](C)CN([C@@H](C)CO)C(=O)c2cc(NC(=O)CCC(F)(F)F)ccc2O1,-5.4
O=C(NCc1cccnc1)c1cc(C2CCCCN2C(=O)OCc2ccccc2)on1 (stereo not given),0.7
COc1ccc(S(=O)(=O)Nc2ccc3c(c2)C(=O)N([C@@H](C)CO)C[C@H](C)[C@H](CN(C)Cc2ccc(-c4ccccc4)cc2)O3)cc1,0.0
O=C(C[C@@H]1CC[C@@H]2[C@H](COC[C@H](O)CN2C(=O)c2ccccc2F)O1)NCc1ccc(Cl)c(Cl)c1,0.0
C[C@H](CO)N1C[C@H](C)[C@H](CN(C)Cc2ccc(C(=O)O)cc2)Oc2c(NS(=O)(=O)c3cccs3)cccc2C1=O,-8.7
O=C1NC[C@@H](Cc2cccc3ccccc23)N(CCc2cccc(F)c2)C1=O,-1.0
CCCNC(=O)N1C[C@@H]2[C@H](c3ccccc31)[C@@H](CO)N2Cc1ccccc1F,-1.2
Cc1cccc(S(=O)(=O)N2C[C@H](O)COC[C@@H]3O[C@@H](CC(=O)NCc4ccc5c(c4)OCO5)CC[C@H]32)c1,7.6
# Next entries follow.
SMILES,AF4-AF9 inh
CCCCCCCCN1C(=O)[C@@H](CC(=O)NCc2cccc(C(F)(F)F)c2)C[C@@]2(C(=O)OC)C1=C[C@H](C(C)(C)C)O[C@@H]2C,0.3
CCOC1=C2[C@H]([C@H]3C(=O)N(c4ccccc4)C(=O)[C@H]3C1)[C@@H](c1ccccc1)N(S(=O)(=O)c1ccc(C)cc1)[C@H]2c1ccccc1,3.1
C[C@@H]1CN([C@H](C)CO)C(=O)c2cc(-c3ccc(F)cc3)cnc2O[C@H]1CN(C)CC1CCOCC1,-2.7
O=C(c1cc(C2CCCCN2S(=O)(=O)c2ccccc2)on1)N1CCOCC1 (stereo not given),-0.7
CO[C@@H]1CN(C)C(=O)c2ccc(NS(=O)(=O)c3cn(C)cn3)cc2OC[C@@H](C)N(Cc2cccc(C(F)(F)F)c2)C[C@H]1C,6.5
Cc1ccc(S(=O)(=O)N2[C@@H](CO)CO[C@H]2CC(=O)OCc2ccccc2)cc1,-3.2
CN1CCN(C(=O)C[C@@H]2C[C@@H]3c4cc(NC(=O)Nc5ccc(C(F)(F)F)cc5)ccc4O[C@@H]3[C@@H](CO)O2)CC1,17

# Copied from the listing, 5 compounds:
SMILES,AF4-AF9 inh
Cc1cccc(S(=O)(=O)N2C[C@H](O)COC[C@@H]3O[C@@H](CC(=O)NCc4ccc5c(c4)OCO5)CC[C@H]32)c1,7.6
CCCCCCCCN1C(=O)[C@@H](CC(=O)NCc2cccc(C(F)(F)F)c2)C[C@@]2(C(=O)OC)C1=C[C@H](C(C)(C)C)O[C@@H]2C,0.3
CCOC1=C2[C@H]([C@H]3C(=O)N(c4ccccc4)C(=O)[C@H]3C1)[C@@H](c1ccccc1)N(S(=O)(=O)c1ccc(C)cc1)[C@H]2c1ccccc1,3.1
C[C@@H]1CN([C@H](C)CO)C(=O)c2cc(-c3ccc(F)cc3)cnc2O[C@H]1CN(C)CC1CCOCC1,-2.7
O=C(c1cc(C2CCCCN2S(=O)(=O)c2ccccc2)on1)N1CCOCC1 (stereo not given),-0.7
